# Source: PubChem BioAssay (several laboratories)
# BJeLR lethal = kills HRASV12-expressing BJeLR cells; BJeLR (HRASV12) viability, CellTiter-Glo ATP luminescence, 48 h; reference of the scale not given here; inhibition, % (concentration not given with the values); actives 0.17% (n = 300,000); AID 1554;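 active = replicate mean above 50%; inconclusive = above 50% but judged a plate artefact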;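 also: 50 nL library stock added to about 25 µL; numbers are from one replicate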
# Sa ugtP lethal = kills S. aureus RN4220 lacking UgtP; S. aureus RN4220 ugtP deletion, OD600 growth, 16 h; some inactives read as strong as hits; growth inhibition, % (no concentration beside the values); AID 1259309; actives 0.54% (n = 330,000);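 active = z-score under -3 and OD600 up to 0.15 on both plates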;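 also: plate controls were untreated wells for no effect and antibiotic for full effect; wells of about 80 µL received 100 nL stock; the first replicate is given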
# Bead autofluor = counter-screen for toxin protease inhibitors: compound fluorescence; compound autofluorescence counterscreen, microsphere flow cytometry; stronger effect = higher value; fluorescence intensity (test concentration not listed); actives 3.1% (n = 360,000); AID 624483;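 active = at least 3 SD above the mean of all compounds, about 16000 in these data; inconclusive = too few beads counted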;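 also: 100 nL of 1 mM stock went into each well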
# Sa RN4220 lethal = kills Staphylococcus aureus RN4220; S. aureus RN4220 growth, OD600, 16 h; inhibition, % (test concentration not listed); AID 1259311; actives 0.33% (n = 330,000);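 active = z-score of -3 or lower and OD600 up to 0.18 on both plates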;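 also: plate controls were untreated cells for no effect and reference antibiotic for full effect; stock transfer was 100 nL into about 80 µL; one replicate is shown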
# Mtb hypoxia rep = inhibitors of hypoxia-regulated fluorescent reporter in Mycobacterium tuberculosis; M. tuberculosis hypoxia-regulated fluorescent reporter, fluorescence; fluorescence inhibition, % (no concentration beside the values); actives 0.1% (n = 300,000);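 active = 35 to 45% if threefold the growth effect, above 45% if 1.5-fold the growth effect; inactive = the rest, general growth blockers included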;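 also: wells of about 50 µL received 100 nL stock; 0% = vehicle wells and 100% = reference inhibitor wells; whole bacteria with a GFP reporter of the hypoxia response; strong numbers were not always called active; many hits fall short of the cut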
# PrP 5UTR inh = suppresses PrP 5' UTR mRNA reporter expression. inhibition, % (concentration not given with the values). AID 488862. cell-based PrP 5' UTR mRNA reporter, plate reader. actives 0.35% (n = 340,000);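 active = every replicate at 50% or more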;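 also: 0 = median of the neutral control wells; tested in H4 reporter cells; numbers are from one replicate; inactives centre near -14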
# Mtb hypoxia rep growth = also measured in Mtb hypoxia rep; calls as there; growth inhibition, %; measured here: M. tuberculosis growth (absorbance);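 0% = vehicle and 100% = reference antibiotic; read after six days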
# Starred values were filed as active, the others as inactive; u = inconclusive; x = no result given. Not a hit list. Share with any hit: about 4.1%.
SMILES,BJeLR lethal,Sa ugtP lethal,Bead autofluor,Sa RN4220 lethal,Mtb hypoxia rep,Mtb hypoxia rep growth,PrP 5UTR inh
COc1ccc(/C=C/c2c([N+](=O)[O-])c(=O)n(C)c(=O)n2C)cc1OC,0,-1,10252,-3.3,-1,-1,-2
CC(C)(C)c1ccc(C2(C)NC(=O)NC2=O)cc1 (configuration not stated),-5,5,5676,3.1,-4,11,-13
CCCn1c(SCC(=O)N(C)CC(=O)Nc2ccc(C)cc2)n[nH]c1=O,x,-1,5903,1.5,2,6,x
COC(=O)[C@@]12CCCN1[C@H](c1ccc(-c3ccccc3)cc1)[C@@H]1C(=O)N(C)C(=O)[C@@H]12,-4,x,4394,x,x,x,-25
CSc1ccc(CN(C)C(=O)c2cc(=O)c3ccccc3o2)cc1,1,5,4267,5.2,3,1,-11
O=C(CSc1nnc(-c2ccncc2)n1Cc1ccccc1)NC1CCCc2ccccc21 (configuration not stated),-1,-2,2675,2.9,-3,4,-20
CCCN(C(=O)CSc1nc2ccccc2n1CC)C1CCS(=O)(=O)C1 (configuration not stated),3,-1,u,-0.8,1,-7,-26
CCSc1nnc(-c2ccc(S(=O)(=O)N3CCOCC3)cc2)n1CC1CCCO1 (configuration not stated),-3,-2,15596,-4.8,-9,6,10
CCOc1ccc(OCCN(C)Cc2ccccc2)cc1,8,5,4731,8.0,10,12,-15
COc1cc(C=Nn2c(C3CCCCC3)n[nH]c2=S)cc(OC)c1O,x,2,x,1.2,7,-4,x
CCOC(=O)Nc1ccc(NC(=O)c2c(OC)cccc2OC)cc1,5,9,5776,3.6,13,5,-15
CCOC(=O)Cc1c(C)nc2c(-c3ccccc3)cnn2c1C,-8,17,4618,6.7,3,0,-15
CSc1ccccc1NC(=O)c1ccc(CN2CCOCC2)cc1,-2,6,4114,5.0,2,2,-37
CC1CCN(C2=C(NS(=O)(=O)c3ccccc3)C(=O)c3ccccc3C2=O)CC1,6,-14,x,3.9,2,4,-16
COC(=O)C1C(=O)c2c([nH]c(C(=O)OCCSC)c2C)CC1C (configuration not stated),-8,10,5776,0.6,x,x,-52
C=CCn1c(SCC(=O)c2c(N)n(C)c(=O)n(C)c2=O)nnc1-c1ccoc1C,x,2,2900,4.1,0,-1,-13
Cc1sc2nc(-c3ccccc3)oc(=O)c2c1C,3,-10,4632,-2.2,-4,-4,2
CCCCc1c(O)nc(SCC(=O)N2CCOCC2)n(-c2ccccc2OC)c1=O,-4,2,3798,-1.9,-9,-3,-17
Cc1cc(N/N=C/c2c(O)ccc3ccccc23)nc(-c2ccccc2O)n1,18,x,7568,x,x,x,24
Cc1ccccc1-c1nc2sc3c(c2c(=O)n1N)CCCC3,0,-2,9671,3.2,-81,-16,-55
Cc1ccc(C=NNc2nc3c([nH]2)c(=O)n(C)c(=O)n3C)cc1,x,8,2835,4.6,5,7,-16
Cc1n[nH]c(C)c1CCN(C)Cc1cn(C)nc1-c1ccccc1F,2,3,3048,4.5,8,-4,-74
CCn1c(-c2cc(-c3cccc(OC)c3)nc3ccccc23)n[nH]c1=S,0,-15,19974*,6.8,12,12,-14
O=C(COc1ccc([N+](=O)[O-])cc1)Nc1ccc(N2CCN(C(=O)c3ccco3)CC2)cc1,1,-5,5629,1.5,-1,15,3
Oc1ccccc1/C=N/NP(=S)(c1ccccc1)c1ccccc1,-2,x,4286,x,x,x,-33
# (listing goes on)
SMILES,BJeLR lethal,Sa ugtP lethal,Bead autofluor,Sa RN4220 lethal,Mtb hypoxia rep,Mtb hypoxia rep growth,PrP 5UTR inh
C=CCOc1cccc(C2/C(=C(/O)c3ccccc3)C(=O)C(=O)N2CCN2CCOCC2)c1 (configuration not stated),1,2,9427,5.5,6,12,-27
Cc1cc(C(F)F)nn1CC(=O)NCc1ccc(Cl)cc1Cl,1,-6,6861,-4.9,1,-4,-7
CCN(CC)C(=O)[C@H]1C[C@H](CC(=O)NC/C=C(\C)CCC=C(C)C)C(=O)N2CCc3c([nH]c4cc(CCC(=O)N(C)C)ccc34)[C@]12C,x,-1,4120,0.2,-4,5,-10
O=C(c1ccco1)N1CCN(S(=O)(=O)c2ccc(F)cc2)CC1,2,13,3964,6.5,18,6,-26
O=C(NNC(=S)NCc1ccccc1)c1ccc2c(c1)OCO2,9,-2,2033,-0.1,4,3,-7
CNC(=O)NC(=O)CSc1nnc(-c2ccc(F)cc2)n1CC1CCCO1 (configuration not stated),-4,8,4663,9.3,-6,-1,-24
c1cncc(-c2nc3cc4ccccc4cc3[nH]2)c1,8,-13,11617,10,14,8,-93
C=CCc1cccc(/C=N/c2ncccc2O)c1O,2,x,8395,x,x,x,-3
CCOC(=O)c1cnc2nc(C(F)(F)F)[nH]n2c1=O,-4,-3,9362,6.1,12,9,-17
Cc1nn(C(C)CC(=O)O)c(C)c1Br (configuration not stated),1,11,12756,3.6,12,6,-22
COc1ccc2c(c1)CCC/C2=N\OC(=O)c1ccccc1F,-3,x,4515,x,x,x,-9
Cc1sc2ncnc(N3CCC(C(=O)NNC(=O)COc4ccc(Br)cc4)CC3)c2c1C,6,-8,x,-6.9,0,2,-19
CCC(NC(=O)NC1=NCCS1)(C(F)(F)F)C(F)(F)F,-5,8,4140,3.9,12,12,-11
CCOc1ccc(-n2c(SCC(=O)NCc3ccco3)nc3c(c2=O)SCC3)cc1,x,10,9363,4.0,-1,4,-51
CC(C)c1ccc(C(CC(=O)O)N2Cc3ccccc3C2=O)cc1 (configuration not stated),3,6,3922,2.9,7,-6,-26
COc1cc(NC(=O)c2ccc(NC3=NC4CS(=O)(=O)CC4S3)cc2)cc(OC)c1OC (configuration not stated),-4,-4,5541,0.0,4,13,-10
CN(CCOc1ccccc1)C(=O)CNC(=O)c1ccc(C(C)(C)C)cc1,x,22,x,-3.1,1,2,-28
COc1ccc(Cl)cc1S(=O)(=O)Nc1ncn[nH]1,-7,1,3890,-2.6,-1,4,-30
Fc1ccc(-n2nnnc2-c2cnc(-c3cccs3)nc2C(F)(F)F)cc1,6,-8,9586,1.8,6,11,-7
C1=Nc2c(NCc3ccccc3)ncnc2Oc2ccccc21,13,5,2972,-4.1,x,x,-7
CC(C)C(NC(=O)C1CCCCC1)C(=O)NC1CCCC(C)C1C (configuration not stated),9,6,3319,2.2,10,-1,-19
Cc1sc2ncnc(SCc3ccco3)c2c1C,14,75,2993,11,7,13,-18
Cc1coc2cc3oc(=O)c(CCC(=O)NC4CC4)c(C)c3cc12,-8,-2,5491,0.9,x,x,-18
O=S(=O)(Nc1cccc(-c2ccc(N3CCOCC3)nn2)c1)c1cc(Cl)ccc1Cl,-3,2,5909,11,10,0,-26
CCCNC(=O)CN1C(=O)NC(Cc2c[nH]c3ccccc23)C1=O (configuration not stated),-23,-1,3532,1.2,4,0,-4
# Remaining list, next part:
SMILES,BJeLR lethal,Sa ugtP lethal,Bead autofluor,Sa RN4220 lethal,Mtb hypoxia rep,Mtb hypoxia rep growth,PrP 5UTR inh
C=CCc1c(C)nc(-c2ccccc2)nc1NN=Cc1ccccc1,x,1,x,-1.5,14,11,x
Cc1ccc(-n2nc3c(=O)n(CCCC(=O)NCc4ccc(F)cc4)nc(C)c3c2C)cc1,-1,-2,5702,2.1,-6,0,-2
O=C(CCC(=O)N1CCSc2ccccc21)NCc1cccc(Br)c1,-7,6,5374,-0.7,x,x,-9
COc1ccc(C(=O)NCCCNC(=O)c2ccco2)cc1OC,1,14,3001,2.9,7,-6,6
CCN(CC)CCN(Cc1cc2cc(C)ccc2[nH]c1=O)C(=S)NCc1ccco1,11,11,4090,3.9,13,8,-1
COc1ccc(N(C)C(=O)C2CCCN2S(=O)(=O)c2cccc3nsnc23)c(OC)c1 (configuration not stated),-7,-7,5178,-4.0,-9,1,5
O=C(N=Nc1c(O)n(Cc2ccccc2)c2ccccc12)c1cc2ccccc2cc1O,4,-11,2432,3.5,-4,-4,-159
CC(=O)Nc1ccc(CN2CCN(CCc3ccccc3)C(CCO)C2)cc1 (configuration not stated),11,5,3246,3.1,14,1,34
O=C(/C=C/c1ccncc1)c1ccc(NC(=O)c2ccccc2F)cc1,x,8,2546,19,1,9,-24
COc1ccc(Cn2nnnc2C(c2cc3cc(C)cc(C)c3[nH]c2=O)N2CCOCC2)cc1 (configuration not stated),-5,2,11008,1.2,2,0,-19
O=C1C=CC(=Nc2ccc3c(c2)C(=O)c2ccccc2-3)O1,x,-3,4268,0.0,5,16,-5
CCCCn1c(N)c(N(CCC(C)C)C(=O)c2ccc3c(c2)OCCO3)c(=O)[nH]c1=O,-2,4,5155,3.9,7,9,-29
Cc1ccc(NC(=O)CSc2nnc(-c3ccncc3)n2N)cc1C,1,-1,24163*,0.2,1,1,-10
COc1ccc(C(=O)N2CCC(C(=O)Nc3ccc(OC)c(OC)c3)CC2)cc1,-2,5,2872,6.8,10,12,-28
Cc1nc2ccccc2c(=O)n1/N=C/c1cccs1,-7,x,4309,x,x,x,-41
CC(=O)N1CCN(C(=O)c2ccc(-c3ccccc3Cl)o2)CC1,x,0,4958,1.7,8,-1,-56
O=C(NCCOc1ccccc1)c1n[nH]c(=O)c2ccccc12,-16,8,9933,1.4,-4,-1,-25
O=C(NCCc1ccc(Cl)cc1)c1ccc2ccccc2n1,-8,0,5111,2.6,-5,-3,9
COc1ccc(NC(=O)c2c(C(F)(F)F)nn(C)c2SCc2ccccc2Cl)cc1,2,-5,19414*,0.5,5,8,-26
COCCN(CCOC)C(=O)CSc1ccc(S(=O)(=O)N2CCN(C)CC2)cn1,x,2,6516,5.5,4,4,-7
COc1cccc(CN(C)C(c2ccccc2)c2ccccc2)c1OC,6,63,5288,-7.9,-1,0,-13
CC(=NNC(=O)C(C)n1nc(C)c([N+](=O)[O-])c1C)c1ccccc1O (configuration not stated),x,3,x,6.1,4,-2,x
O=C(Cn1ncc2c3ccccc3n(Cc3cccc(Cl)c3)c2c1=O)NCc1ccccn1,6,-4,5346,0.6,-11,-20,-19
COc1ccc2cc(CCNC(=O)c3ccc(S(=O)(=O)N4CCOCC4)cc3)c(=O)[nH]c2c1,0,-3,4629,-4.4,-7,-7,1
c1ccc(-c2nnc(CSc3nnc(-c4ccncc4)n3Cc3ccco3)o2)cc1,-19,-1,6987,5.8,8,3,-6

# Next part, starting with the last 7 of the part before.
SMILES,BJeLR lethal,Sa ugtP lethal,Bead autofluor,Sa RN4220 lethal,Mtb hypoxia rep,Mtb hypoxia rep growth,PrP 5UTR inh
COc1ccc(NC(=O)c2c(C(F)(F)F)nn(C)c2SCc2ccccc2Cl)cc1,2,-5,19414*,0.5,5,8,-26
COCCN(CCOC)C(=O)CSc1ccc(S(=O)(=O)N2CCN(C)CC2)cn1,x,2,6516,5.5,4,4,-7
COc1cccc(CN(C)C(c2ccccc2)c2ccccc2)c1OC,6,63,5288,-7.9,-1,0,-13
CC(=NNC(=O)C(C)n1nc(C)c([N+](=O)[O-])c1C)c1ccccc1O (configuration not stated),x,3,x,6.1,4,-2,x
O=C(Cn1ncc2c3ccccc3n(Cc3cccc(Cl)c3)c2c1=O)NCc1ccccn1,6,-4,5346,0.6,-11,-20,-19
COc1ccc2cc(CCNC(=O)c3ccc(S(=O)(=O)N4CCOCC4)cc3)c(=O)[nH]c2c1,0,-3,4629,-4.4,-7,-7,1
c1ccc(-c2nnc(CSc3nnc(-c4ccncc4)n3Cc3ccco3)o2)cc1,-19,-1,6987,5.8,8,3,-6
Cn1c(CNC(=O)c2ccccc2F)nnc1SCC(=O)NCc1ccccc1,-6,-12,4713,-3.0,1,-2,-21
Cc1cccc(N2CCN(C(=O)c3c(Cl)cnn3C)CC2)c1C,-4,5,5678,0.9,17,2,-13
CCOc1ccc2nc(N/C(N)=N/C(=S)Nc3cccc(OC)c3)nc(C)c2c1,-6,-15,5905,15,-4,-2,-28
O=C(CSc1nnc2ccccn12)c1ccccc1,5,12,5842,3.9,x,x,-41
Cc1ccc(C)c(NC(=S)c2nc3ccccc3s2)c1,-1,10,2038,-7.2,7,8,-22
O=C(COC(=O)COc1ccccc1Cc1ccccc1)Nc1cccnc1Cl,0,2,2298,2.2,4,6,-13
CC(C)Cc1ccc(CN2CCCC(NC(=O)CSc3nncn3C)C2)cc1 (configuration not stated),4,x,6007,x,x,x,-6
N#Cc1c(-c2ccccc2)nc(N2CCCCCC2)[nH]c1=O,3,-6,12131,10,2,11,-10
CC(NC(=O)C(=O)N/N=C/c1ccc(Cl)cc1)c1ccccc1 (configuration not stated),0,x,4019,x,x,x,-12
